Screens: PubChem, National Center for Advancing Translational Sciences (NCATS)
2A StopGo – FMDV 2A StopGo reporter, luciferase signal; 410,000 tested, 1.2% active; Potency, µM (top dose mostly 57.9 µM), for inactives: at the highest dose signal change, negative = less light; human cells with a luciferase reporter of 2A StopGo recoding; control for the full effect not named in the record; active = well fitted falling curve with a large enough effect; inconclusive = small, poorly fitted or top-dose-only effect; inactive = no such curve, though single readings can be large or run the other way; tested in HEK293T cells; note: % is set by controls: 0 for no effect and ±100 for the full control effect; nearly all actives have a fitted effect of over 45% in size; luciferase light after 4 h
SARS PLpro yeast – blocks SARS-CoV papain-like protease in a yeast assay; 330,000 tested, 0.19% active; S. cerevisiae expressing SARS-CoV PLpro, growth rescue; control for the full effect not named in the record; Potency, µM (titrated, usually from 32.9 µM), without a hit: at the highest dose activity, positive = growth rescue; note: 0% is about no effect; nearly all actives have a fitted effect of over 55% in size; growth read by luminescence after 48 h
MARV entry inh – Marburg virus entry inhibition; Marburg virus pseudotyped entry inhibition, cell reporter; control for the full effect not named in the record; about a third of the inactives were read at about 46 µM; Potency, µM (series often up to 37.8 µM), for the others: at the top dose activity change, negative = inhibition, actives largely listed as inhibitors; 300,000 tested, 1.8% active; AID 540276; active = well fitted inhibition curve with a large enough effect; inconclusive = small, poorly fitted or top-dose-only effect, or effect the other way; inactive = flat fitted curve, though single readings scatter; tested in HEK293 cells; about a fifth of its hits are not listed in these tables; note: % is set by controls: 0 for no effect and ±100 for the full control effect; luciferase read-out
LASV entry inh – inhibitors of Lassa virus binding or cell entry; Lassa virus pseudotype entry inhibition, cell reporter; control for the full effect not named in the record; Potency, µM (series often up to 37.9 µM), for the others: at the top dose activity change, negative = inhibition, usual class: inhibitors; 300,000 tested, 1.2% active; active means well fitted inhibition curve with a large enough effect; inconclusive means small, poorly fitted or top-dose-only effect, or effect the other way; inactive means flat fitted curve, though single readings scatter; tested in HEK293 cells; note: % is set by controls: 0 for no effect and ±100 for the full control effect; nearly all actives have a fitted effect of over 50% in size; luciferase read-out
Cruzain Triton – cruzain (T. cruzi) inhibition with detergent; P25779; purified cruzain, Z-FR-AMC fluorescence, 0.01% Triton; Potency, µM, for the others: max response, negative = inhibition, hits mostly inhibitors; 200,000 tested, 0.43% active; active = well fitted curve in the direction sought with a large enough effect; inconclusive = small, poorly fitted or top-dose-only effect, or another doubt; inactive = no such curve, though single readings can be large; an effect the other way counts as inactive or inconclusive;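 note: plate controls were neutral wells for no effect and buffer without enzyme for full effect; nearly all actives have a fitted effect of over 40% in size; top concentration of the series not given in the record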
Target sequence (P25779 123-467 limits assumed): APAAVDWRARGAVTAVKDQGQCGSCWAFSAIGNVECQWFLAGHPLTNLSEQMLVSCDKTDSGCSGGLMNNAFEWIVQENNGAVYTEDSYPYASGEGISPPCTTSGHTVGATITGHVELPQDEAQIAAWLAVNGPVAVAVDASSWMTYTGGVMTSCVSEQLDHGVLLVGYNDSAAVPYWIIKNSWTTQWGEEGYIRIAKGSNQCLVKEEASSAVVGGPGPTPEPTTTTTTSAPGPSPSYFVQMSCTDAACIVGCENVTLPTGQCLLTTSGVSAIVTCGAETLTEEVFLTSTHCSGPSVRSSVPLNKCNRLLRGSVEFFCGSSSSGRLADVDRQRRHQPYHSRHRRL
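Sodium acetate buffer (100 mM, pH 5.5) containing 5 mM DTT and 0.01% Triton X-100 hosted 1.5 nM cruzain and test compound for 15 min at room temperature. Cleavage of 2 uM Z-FR-AMC was then tracked by fluorescence.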
Cruzain inh noDet – inhibitors of Trypanosoma cruzi cruzain without detergent; Potency, µM, inactives show max response, negative = inhibition, usual class: inhibitors; P25779; purified cruzain, Z-FR-AMC fluorescence, no detergent; 200,000 tested, 2.3% active; AID 1476; active = well fitted curve in the direction sought with a large enough effect; inconclusive = small, poorly fitted or top-dose-only effect, or another doubt; inactive = no such curve, though single readings can be large; an effect the other way counts as inactive or inconclusive;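 note: plate controls were enzyme without inhibitor for no effect and buffer without enzyme for full effect; nearly all actives have a fitted effect of over 40% in size; top concentration of the series not given in the record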
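Detergent-free condition (0.00005% Triton X-100) in acetate buffer pH 5.5 with DTT. 1.5 nM enzyme and compound were pre-mixed 15 min, then 2 uM Z-FR-AMC substrate added; reaction progress from fluorescence change between first and third reads (60 s).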
NS1 inh – influenza NS1 inhibition | S. cerevisiae slowed by influenza A NS1, growth recovery by OD600 | Potency, µM (doses to about 46.1 µM), without a hit: top-dose activity, positive = more growth | 270,000 tested, 0.4% active; note: actives are rising curves; nearly all actives have a fitted effect of over 50% in size
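S. cerevisiae expressing influenza A NS1, grown in glucose, washed, then diluted 1:100 into pH 6.0 -URA galactose medium with 23 nl compound. Growth recovery read as OD600; NS1-free strain serves as control.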
RE007 growth inh – less growth of the S. pombe RE007 Vpr strain; Potency, µM (doses to about 92.2 µM), inactives show at the top dose activity change, negative = less growth; AID 651644; 360,000 tested, 0.21% active; S. pombe RE007 Vpr strain, BacTiter-Glo ATP luminescence, 24 h; control for the full effect not named in the record; active = well fitted falling curve with a large enough effect; inconclusive = small, poorly fitted or top-dose-only effect; inactive = no such curve, though single readings can be large or run the other way;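 note: % is set by controls: 0 for no effect and ±100 for the full control effect; nearly all actives have a fitted effect of over 50% in size; the assay follows cell death caused by Vpr and the record does not say whether a fall means rescue or toxicity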
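Fission yeast RE007 carrying one integrated HIV-1 vpr copy, seeded at OD 0.01 in PMG+AL medium with 23 nL pinned compound. Grown 24 h at 30 degrees; viability read by BacTiter-Glo luminescence after 5 min.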
* hit, by the source's call; ? = inconclusive; · = no result given; [ ] = remark or other dose. Unless noted, calls come from the whole dose curve; as a rule, active means well fitted rising curve with a large enough effect; inconclusive means small, poorly fitted or top-dose-only effect; inactive means no such curve, though single readings can be large or run the other way. Potency is the fitted concentration of half-maximal effect.

SMILES	2A StopGo	SARS PLpro yeast	MARV entry inh	LASV entry inh	Cruzain Triton	Cruzain inh noDet	NS1 inh	RE007 growth inh
CN(C)CCN(CC1CCCN(Cc2ccccc2F)C1)C(=O)Cc1c(F)cccc1F (stereo not drawn)	-11%	1%	·	·	·	·	-17%	4%
CCCCn1c(N)c(N(CC(C)C)C(=O)c2ccc(S(=O)(=O)N(CC)c3ccccc3)cc2)c(=O)[nH]c1=O	12%	-1%	10%[46.1 µM]	?	·	·	·	?
CN(C)C(=O)CC12CC3CC(C1)CC(CC(=O)N(C)C)(C3)C2	-4%	-1%	-5%[46.1 µM]	0%	·	·	0%	9%
Cc1cccc(Cn2c(=O)n(Cc3ccc4c(c3)OCO4)c(=O)c3oc4ccccc4c32)c1	-22%	·	·	-1%[46.1 µM]	0.4%	6%	·	·
CCCC(=O)Nc1c2c(nn1-c1cccc(C)c1C)CS(=O)(=O)C2	-17%	0%	·	·	·	·	4%	0%
COc1ccc(C(=O)N2CCN(c3ccc(NC(=O)c4ccco4)cc3)CC2)cc1	-26%	0%	-1%	-15%	·	·	-4%	-4%
Cc1ccccc1C(=O)N1CCN(c2ccc(NC(=O)c3ccco3)cc2)CC1	25%	-1%	?	-37%[46.1 µM]	·	·	-5%	-6%
CCc1c(C)c2ccc(OCC(=O)N(C)C)c(C)c2oc1=O	0%	-3%	7%	5%	-4.7%	25%	-17%	14%
CC(=O)c1ccc(N(CC(=O)NC2CCCC2)C(=O)c2ccc(C)s2)cc1	-4%	-2%	?	7%[46.1 µM]	·	·	5%	-25%
COc1cc(OC)c(S(=O)(=O)N2CCN(C(=O)c3ccccc3F)CC2)cc1NC(C)=O	-12%	0%	5%[46.1 µM]	5%	·	·	-3%	-26%
COc1ccc(N2C(=O)CCC(C(=O)O)C2c2ccccc2OC)cc1 (stereo not drawn)	-14%	4%	·	·	·	·	-6%	0%
CC1CN=C(NC2CCCCC2C)S1 (stereo not drawn)	-11%	-5%	-4%	-2%	0.8%	-8%	-4%	-2%
Clc1ccc(SCc2csc(N3CCOCC3)n2)cc1	-11%	-3%	-17%	3%	·	·	-7%	-12%
Cc1ccc(C(=O)Nc2nc(=O)n(C(=O)CC(C)C)s2)cc1	-7%	-17%	4%	-13%	11%	-11%	-21%	3%
CN(C)C(/C=C/Nc1ccc(F)cc1)=C(C#N)C#N	·	?	-25%	7%	1.5%	-1%	5%	6%
O=C(CC(=O)N/N=C/c1ccc(O)cc1)N/N=C/c1ccc(O)cc1	14%	1%	·	·	·	·	-1%	-3%
O=c1cc(N2CCN(Cc3ccccc3)CC2)[nH]c(=O)n1Cc1ccc(F)cc1	-9%	-5%	-2%	-9%	1.0%	-3%	1%	5%
FC(F)(F)c1nc2ccccc2nc1N/N=C/c1c(Cl)cccc1Cl	-21%	-1%	13%	2%	-6.3%	-11%	2%	1%
CN(CC(=O)O)c1ccc(S(=O)(=O)N2CCOCC2)cc1[N+](=O)[O-]	3%	-2%	?	1%	·	·	5%	-4%
COc1ccc(S(=O)(=O)N/N=C(/C)c2ccncc2)c(OC)c1	41%[activator]	4%	-8%[46.1 µM]	8%[46.1 µM]	·	·	1%	2%
COCCCNC(=O)Cn1c(=O)n(CCCCCC(=O)NCc2ccc3c(c2)OCO3)c(=O)c2sccc21	2%	-1%	?	-16%[46.1 µM]	·	·	·	0%
CCCCOCCCNC(=O)CN1C(=O)c2ccccc2C1=O	·	-2%	11%	18%	-2.4%	5%	?	-1%
CC(C)OC(=O)Cn1cc(C#N)c2ccccc21	-11%	-1%	11%[46.1 µM]	-2%	·	·	3%	7%
CCc1nnc(NC(=O)CSc2nnc(-c3ccc(S(=O)(=O)N(CC)CC)cc3)n2CC)s1	-14%	4%[6.58 µM]	-4%	-16%	1.9%	?	9%	5%
O=C(CN1CCN(C(=O)c2ccc(-c3nc4ccccc4s3)o2)CC1)Nc1ccccc1Cl	-23%	0%	?	?	·	·	·	2%
CCOc1ccc(N(CC(=O)N2CCN(c3ccccc3OC)CC2)S(=O)(=O)c2ccc(F)cc2)cc1	-10%	1%	?	?	·	·	-14%	4%
Cc1ccc(NS(=O)(=O)c2cc(Br)cc3c2N(C(=O)C2CC2)CC3)cc1C	-51%	·	·	?	-3.3%	-28%	·	·
CCOC(=O)C(NC(=O)CC)(Nc1ccccc1)C(F)(F)F (stereo not drawn)	-7%	22%	-3%	-1%	0.6%	5%	8%	11%
Cc1ccc(S(=O)(=O)Cc2ccc(C(=O)N3CCC(C(N)=O)CC3)o2)cc1	-5%	1%	·	·	·	·	8%	-5%
CCOC(=O)C1CCN(C(=O)Cn2nc(C)n3c(cc4c(OC)cccc43)c2=O)CC1	0%	·	17%[46.1 µM]	·	-1.9%	-3%	·	·
Cc1ccc(Nc2nc(-c3ccc(S(=O)(=O)N4CCOCC4)cc3)cs2)cc1	?	·	?	-29%	·	·	·	6%
Cc1ccc2occ(CC(=O)N(Cc3ccccc3Cl)C3CCS(=O)(=O)C3)c2c1 (stereo not drawn)	-25%	·	-3%[46.1 µM]	-24%[46.1 µM]	-6.7%	7%	·	·
CCOC(=O)C1C(C(=O)NN)C1C(=O)Nc1ccccc1 (stereo not drawn)	-9%	0%	2%[46.1 µM]	3%	·	·	·	0%
Cc1ccc(NC(=O)Cn2c(=O)n(-c3ccc(Cl)c(Cl)c3)c(=O)c3c(C)c(C)sc32)c(C)c1	-22%	·	1%[46.1 µM]	5%[46.1 µM]	-2.7%	-4%	·	·
COc1ccc(N2C(=O)CSC2c2ccncc2)cc1 (stereo not drawn)	-17%	4%	5%	7%	0.2%	-3%	-3%	10%
Cc1ccc(N2C(=O)C3C4C=CC(CC4)C3C2=O)cc1Cl (stereo not drawn)	3%	-4%	·	·	·	·	-26%	17%
OC(CN1CCC(Cc2ccccc2)CC1)C(F)(F)F (stereo not drawn)	-6%	2%	·	·	·	·	2%	1%
CC1(C)CC2CC(C)(CN2S(=O)(=O)c2ccc(C(=O)Nc3ccc(Cl)c(S(=O)(=O)N4CCOCC4)c3)cc2)C1 (stereo not drawn)	?	9%	3.5µM*	?	3.5%	-8%	?	-12%
CC(=O)Nc1ccc(NC(=O)C2CCCN(c3nnc(-n4cccc4)s3)C2)cc1 (stereo not drawn)	-9%	?	11%	-7%	1.4%	?	8%	19%
COc1ccc(CCNC(=O)c2ccc3c(c2)SC2=NS(=O)(=O)CCN23)cc1	-17%	-1%	-16%[46.1 µM]	5%	·	·	2%	24%
COc1ccc(CCNC(=O)c2nc3ncccn3n2)cc1OC	-16%	2%	3%	2%	0.8%	-3%	4%	-6%
CN(c1ccccc1)S(=O)(=O)c1ccc(NC(=O)c2ccccc2)cc1	?	-9%	-23%	?	-5.2%	3%	-44%	16%
CCCCCC(=O)N1CC2(C)CN(C(=O)CCCCC)CC(C)(C1)C2=O	7%	-6%	?	-2%	0.8%	-1%	5%	16%
CC1(C)CC(NC(=O)Cc2ccccc2)CC(C)(C)N1	-9%	6%	·	·	·	·	5%	-24%
Cc1ccc(CNc2ccc(-c3nc(-c4ccncc4)no3)cc2[N+](=O)[O-])cc1	-13%	·	3%[46.1 µM]	0%[46.1 µM]	-12%	-10%	·	·
CC(=O)c1cccc(NC(=O)CN(c2cc(C)cc(C)c2)S(=O)(=O)c2c(C)noc2C)c1	0%	·	-20%[46.1 µM]	-3%[46.1 µM]	-8.4%	-4%	·	·
CCCn1c(N)c(Sc2ccccc2)c(=O)n(CCC)c1=O	-4%	-5%	-11%	31%[14.3 µM]	7.9%	8%	9%	-3%
O=c1cc(O)c2ccccc2n1Cc1ccccc1Cl	-12%	10%	5%[46.1 µM]	?	·	·	·	1%
S=C(NCCc1ccccc1)N1CCN(C(=S)NCCc2ccccc2)CC1	0%	-1%	?	1%[46.1 µM]	·	·	·	-6%
CCC(COC(=O)NC)NC(=O)Oc1ccccc1 (stereo not drawn)	-3%	-2%	17%	8%	9.2%	0%	-1%	1%
CC(OC(=O)c1cc2ccccc2cc1O)C(=O)Nc1ccc(S(N)(=O)=O)cc1 (stereo not drawn)	-13%	0%	·	·	·	·	1%	-15%
CCOc1ccccc1-c1nc(C(N)=O)c2c(n1)n(-c1ccc3c(c1)OCO3)c(=O)n2C	-11%	·	·	18%[46.1 µM]	-1.4%	-1%	·	·
CCN(CC(=O)Nc1ccc(NC(C)=O)cc1)C(=O)CN1C(=O)NC2(CCCC2)C1=O	0%	-3%	-1%	17%	·	·	·	9%
CSc1ncccc1C(=O)N(C)CC(=O)Nc1ccc(Cl)cc1	0%	0%	-18%[46.1 µM]	-16%[46.1 µM]	·	·	-9%	3%
COc1ccc(C(=O)C2CN(C)CC2C(=O)c2ccc(OC)cc2)cc1 (stereo not drawn)	0%	3%	?	10%	2.7%	1%	1%	9%
CC1CN(C(=O)C2CCCCC2)C(C)CN1C(=O)C1CCCCC1 (stereo not drawn)	0%	-1%	8%	-20%	1.4%	6%	-5%	-7%
Cc1ccc(/C=C2\SC(=S)N(CCC(=O)Nc3ccc(O)cc3)C2=O)cc1	24%	0%	·	·	·	·	6%	0%
CC(C)[C@H](NC(=O)N1CCn2c1nc1ccccc12)C(=O)NCc1ccco1	-2%	7%	·	·	·	·	9%	2%
O=C(NCCc1ccco1)C(=O)NCC1CCCN1S(=O)(=O)c1ccccc1 (stereo not drawn)	-18%	-6%	?	?	·	·	·	10%
Cc1cc(OC(=O)c2ccc(S(=O)(=O)N3CCOCC3)cc2)c([N+](=O)[O-])c(=O)[nH]1	-3%	0%	?	-3%[46.1 µM]	·	·	·	-11%
COc1ccccc1OC(=O)c1cc(Cl)nc2ccccc12	·	-17%	2%	4%	-9.0%	7%	-16%	8%
Cc1ccc(O)c(NC(=S)NC(=O)c2ccccc2Cl)c1	9%	-1%	?	?	·	·	-4%	-25%
COc1cc2ccccc2cc1C(=O)Nc1ccc(Cc2ccncc2)cc1	-32%	-38%	?	?	-3.9%	0%	-101%	2%
